Ecoli growth – E. coli growth inhibition, primary screen, OD600; Escherichia coli growth, 23 h; active compounds read low; OD600 absorbance (no concentration beside the values); hit rate 0.21% among 330,000;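 active = OD600 absorbance below the run mean of sample wells minus 3.6 SD, in any replicate, cut at about 0.56 in these data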;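 note: stock transfer was 300 nL into about 60 µL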
An asterisk follows results filed as active; & = joins results of further samples. The list is partial, so the mix of outcomes need not match the whole.

SMILES	Ecoli growth
CN1CCC(=O)N(C(CSc2ccc(Br)cc2)Cc2ccccc2)CC1 (stereo unspecified)	0.669
CCCC(=C1c2ccccc2C(=O)N1c1ccccc1)c1cnc(OC)nc1	0.717
C#CCNC(=O)C1=CC(c2csc3ccccc23)C(CCCO)C(OCC)O1 (stereo unspecified)	0.649&0.7
NC(=O)C1=CC(c2coc3ccccc3c2=O)CC(OCc2ccc(CO)cc2)O1 (stereo unspecified)	0.63
CCN1C(=O)C(=CN2CCN(C)CC2)SC1=S	0.685
O=C1c2c(O)cc(O)cc2O[C@@]12c1c(cc(O)c3c1OC(c1ccc(O)cc1)C(O)C3)OC2c1ccc(O)cc1 (stereo partly specified)	0.702
CC1CN(C(C)CO)C(=O)c2cccc(NC(=O)C3CCCCC3)c2OC1CN(C)S(=O)(=O)c1cccs1 (stereo unspecified)	0.658
CC(CN=[N+]=[N-])CN1CCC(NC(=O)OCc2ccccc2)CCC1=O (stereo unspecified)	0.683
CC(OC(=O)N(C)Cc1ccccc1)C1O[C@]2(C)CCCCC1O2 (stereo partly specified)	0.663
O=C(c1cc(-c2ccncc2)nc2ccccc12)N1CCN(S(=O)(=O)C=Cc2ccccc2)CC1	0.75
NC(=O)C1=CC(c2ccccc2)CC(OCc2ccc(CO)cc2)O1 (stereo unspecified)	0.692&0.675
CC(NC(=O)c1nc[nH]c1C(=O)NC(c1ccccc1)c1ccccc1)C(=O)OCc1ccccc1 (stereo unspecified)	0.688
CCC1=C2CCC3C(=O)N(CC)C(=O)C3C2[C@@]2(Cc3ccccc3)C(=NCCOC)OC(=O)N2C1=O (stereo partly specified)	0.617
CC(C)CN1CCC(=O)N(C(COc2ccccc2)c2ccccc2)CC1 (stereo unspecified)	0.67
O=C(NC(Cc1ccccc1)C(=O)O)C(=Cc1ccco1)NC(=O)c1ccco1 (stereo unspecified)	0.712
COc1ccc(C2CC(=O)C=C(C=Cc3ccccc3)C2)cc1 (stereo unspecified)	0.717
CN1CC(C(=O)NC2(C)OC3(O)C4CCCN4C(=O)C(Cc4ccccc4)N3C2=O)CC2c3cccc4[nH]cc(c34)CC21 (stereo unspecified)	0.685
CC(=CC(=O)c1ccc(F)cc1)NCc1ccc2c(c1)OCO2	0.712
CCCC1CCCO[C@@](C(=O)NCc2ccc(S(C)(=O)=O)cc2)(C(F)(F)F)C1 (stereo partly specified)	0.679
CC(NC(=O)CCC1CCC(=O)N1)c1ccccc1 (stereo unspecified)	0.672
CC=CC=CC(=O)Nc1cccc(C2=NOC3(C2)CC(C(N)=O)N(C(=O)c2cc([N+](=O)[O-])cc([N+](=O)[O-])c2)C3)c1 (stereo unspecified)	0.691
CC1CN(C(C)CO)C(=O)c2cccc(NC(=O)Cc3ccccc3)c2OC1CN(C)C(=O)NC1CCCCC1 (stereo unspecified)	0.638
CC1CC=CC2C1C(=O)N(Cc1ccccc1)C2c1ccoc1 (stereo unspecified)	0.641
CCC(C)Cc1cn(C(CCCCNC(=O)OC(C)(C)C)C(=O)NCCCCCCCCCCC(=O)N2CCN(C(=O)OC(C)(C)C)CC2)nn1 (stereo unspecified)	0.728
CC(C(=O)NCc1ccc(S(C)(=O)=O)cc1)C1C[C@]1(C)C(NC(=O)OCc1ccccc1)c1ccccc1 (stereo partly specified)	0.705
COc1ccc(C=Cc2nc(C)c(-c3ccccc3)c(=O)[nH]2)cc1OC	0.711
NC(CO)c1nnc(C(CCC(=O)O)NC(=O)C2CCNCC2)o1 (stereo unspecified)	0.707
CCN1C(=O)C2C(c3ccc(Cl)cc3)N3C(=O)CN(CCOC)C(=O)[C@@]3(Cc3ccccc3)C2C1=O (stereo partly specified)	0.682
C#CCNC(=O)C1=CC(c2coc3ccccc3c2=O)CC(OCCCCO)O1 (stereo unspecified)	0.645&0.684
COCC=CC1=CC2=CC(=O)C(C)(OC(=O)c3cnc4ccccc4n3)C(=O)C2=CN1CCN1CCOCC1 (stereo unspecified)	0.722

An excerpt from above in order of SMILES length, high to low.
SMILES	Ecoli growth
CC1CN(C(C)CO)C(=O)c2cccc(NC(=O)Cc3ccccc3)c2OC1CN(C)C(=O)NC1CCCCC1 (stereo unspecified)	0.638
COc1ccc(C=Cc2nc(C)c(-c3ccccc3)c(=O)[nH]2)cc1OC	0.711
CC1CC=CC2C1C(=O)N(Cc1ccccc1)C2c1ccoc1 (stereo unspecified)	0.641

Other structures
SMILES	Ecoli growth
COC(=O)[C@@]1(C)CC[C@]2(C)CC[C@@]3(C)C(=CC(=O)C4[C@@]5(C)CCC(O)C(C)(C)C5CC[C@]43C)C2C1 (stereo partly specified)	0.713
C=CCOC(=O)C1=CC(c2ccc(Br)cc2)CC(OCCCCO)O1 (stereo unspecified)	0.672&0.668
CCOC1OC(C(=O)O)=CC(C(C)(C)C)C1CCCO (stereo unspecified)	0.671
CC1COC(=O)C(Cc2ccc(F)cc2)CC=CCC(CC(=O)NC(CO)Cc2ccccc2)C(=O)N1 (stereo unspecified)	0.714&0.719&0.653
COc1ccc(S(=O)(=O)N(C)CC2Oc3c(NC(=O)C4CCCCC4)cccc3C(=O)N(C(C)CO)CC2C)cc1 (stereo unspecified)	0.675
O=C(c1ccccn1)N1N=C2C(=Cc3ccc(F)cc3)CCCC2C1c1ccc(F)cc1 (stereo unspecified)	0.706
O=S1(=O)CCOC2Cc3ccccc3C2N1Cc1cccc(C(F)(F)F)c1 (stereo unspecified)	0.668
Cc1cccc(CCN2C(N(C)C)=NCC2CC(C)C)c1 (stereo unspecified)	0.69
NC(=O)C1CC2(CC(c3cccc(NC(=O)C4CCC(=O)N4)c3)=NO2)CN1C(=O)Cc1ccc([N+](=O)[O-])cc1 (stereo unspecified)	0.651
O=C1C2C(c3ccc(F)cc3)N3C(=O)N(c4cccc(Cl)c4)C(=O)[C@@]3(Cc3ccccc3)C2C(=O)N1C1CCCCC1 (stereo partly specified)	0.701
CCCOc1ccccc1NC(=Nc1nc(C)cc(C)n1)NC(=O)Nc1ccc(Cl)cc1	0.76
COc1ccc(N2C(=O)N3C(c4ccc(Br)cc4)C4C(=O)N(C(C)(C)C)C(=O)C4[C@]3(Cc3ccccc3)C2=O)cc1 (stereo partly specified)	0.702
CC(=O)N1CCN(c2ccc(NC(=O)C=Cc3ccccc3)cc2)CC1	0.727
O=C(CN1C(=O)C(=Cc2cccc(Br)c2)SC1=S)Nc1cccnc1	0.749
CC1CN(C(C)CO)C(=O)c2cc(NS(=O)(=O)c3ccccc3)ccc2OC1CN(C)S(=O)(=O)c1ccc(F)cc1 (stereo unspecified)	0.653

6 of these compounds, reformatted.
mol | Ecoli growth
Cc1cccc(CCN2C(N(C)C)=NCC2CC(C)C)c1 (stereo unspecified) | 0.69
NC(=O)C1CC2(CC(c3cccc(NC(=O)C4CCC(=O)N4)c3)=NO2)CN1C(=O)Cc1ccc([N+](=O)[O-])cc1 (stereo unspecified) | 0.651
O=C1C2C(c3ccc(F)cc3)N3C(=O)N(c4cccc(Cl)c4)C(=O)[C@@]3(Cc3ccccc3)C2C(=O)N1C1CCCCC1 (stereo partly specified) | 0.701
CCCOc1ccccc1NC(=Nc1nc(C)cc(C)n1)NC(=O)Nc1ccc(Cl)cc1 | 0.76
COc1ccc(N2C(=O)N3C(c4ccc(Br)cc4)C4C(=O)N(C(C)(C)C)C(=O)C4[C@]3(Cc3ccccc3)C2=O)cc1 (stereo partly specified) | 0.702
CC(=O)N1CCN(c2ccc(NC(=O)C=Cc3ccccc3)cc2)CC1 | 0.727

The listing continues.
SMILES	Ecoli growth
O=S1(=O)CCOCC(Cc2ccccc2)N1Cc1cccc(Cl)c1 (stereo unspecified)	0.697
O=C(NC1CC=CCC(CC(=O)N(CCO)Cc2ccccc2)C(=O)NC(Cc2c[nH]c3ccccc23)COC1=O)OCC1c2ccccc2-c2ccccc21 (stereo unspecified)	0.711
COc1ccccc1CN1Cc2cccc3c2C(CC1=O)C(O)C(O)C3 (stereo unspecified)	0.677
COc1cc(CC(C)C(C)Cc2ccc(O)c(OC)c2)ccc1O (stereo unspecified)	0.697
COc1ccc(CNC(=O)C2CC=CC3CCN(Cc4ccccc4)C(=O)C32)cc1 (stereo unspecified)	0.662
O=C(NCCNCCO)C1(C(F)(F)F)CC(=CCc2ccccc2)CCCO1 (stereo unspecified)	0.718
CC1CCN(C(=O)c2[nH]cnc2C(=O)NC(Cc2ccccc2)C(=O)OC(C)(C)C)CC1 (stereo unspecified)	0.632
CCOc1ccc(CCN2C(=O)C(=O)N(C(CCCN(C)Cc3ccccc3)CNCc3ccccc3)CC2C(C)C)cc1 (stereo unspecified)	0.686
CCCCC1CN=C(N)N1CC(C)(C)C (stereo unspecified)	0.673
COCc1cccc(C2=CC(=O)CC(c3ccc(F)cc3)C2)c1 (stereo unspecified)	0.623
O=C1Nc2ccccc2C(=O)N2C1C1C(=O)N(Cc3ccccc3)C(=O)C1C2c1ccc(F)cc1 (stereo unspecified)	0.698
CC1CN(C(C)CO)C(=O)c2cc(NC(=O)Nc3ccc4c(c3)OCO4)ccc2OC1CN(C)S(C)(=O)=O (stereo unspecified)	0.717
O=C(C1=CC(c2csc3ccccc23)CC(OCc2ccc(CO)cc2)O1)N1CCN(Cc2ccccc2)CC1 (stereo unspecified)	0.697&0.685
Cc1cccc(-c2oc3ccc(-c4ccc5c(c4)OCO5)cc3c2C=Cc2ccc(N)cc2)c1	0.694
CC(C)CN1CCC(=O)N(C(CN=[N+]=[N-])Cc2ccccc2)CC1 (stereo unspecified)	0.681
CC(N)=C(C#N)C(=O)CSc1ccccc1F	0.667
COc1ccccc1C1=CC(=O)CC(c2ccc(F)cc2)C1 (stereo unspecified)	0.696
Cc1ccnc(NS(=O)(=O)c2ccc(NC(=O)C=Cc3cccs3)cc2)n1	0.728
C[C@]12CCC3c4ccc(OS(=O)(=O)O)cc4CCC3C1CCC2=O (stereo partly specified)	0.69&0.702&0.677
COC(=O)c1cccc(C23CC4(C2)C(CN(Cc2ccc(C(F)(F)F)cc2)C4c2ccccc2)C3c2ccccc2)c1 (stereo unspecified)	0.696
CC(=O)Nc1ccc(SCCN2CCC(C(C)(C)C)CCC2=O)cc1 (stereo unspecified)	0.704
COc1cc(C=NN=C2NC(=O)C(Cc3ccccc3)S2)ccc1O (stereo unspecified)	0.725
CCOC(=O)C1C2COc3cc(OC)ccc3C2N2C(=O)N(c3ccc(Cl)cc3)C(=O)[C@@]12C (stereo partly specified)	0.535
CCCCC1CC1C(NC(=O)c1cccs1)c1ccc(C(F)(F)F)cc1 (stereo unspecified)	0.661
CC(NC(=O)c1nc[nH]c1C(=O)N(C)Cc1ccccc1)C(=O)OC(C)(C)C (stereo unspecified)	0.71
CC(C)CCN1C(N(C)C)=NCC1C (stereo unspecified)	0.685
CS(=O)(=O)N1c2ccccc2[C@@]2(Br)CC3C(=O)NC(Cc4ccccc4)C(=O)N3C12 (stereo partly specified)	0.686
CCN1C(=O)C2C(c3ccc(-c4ccc(C(C)=O)cc4)cc3)N[C@@](C)(C(=O)OC)C2C1=O (stereo partly specified)	0.711
O=C1CCCC=CCC(CC(=O)N(CCO)Cc2ccccc2)C(=O)NCC(c2ccccc2)O1 (stereo unspecified)	0.715
COc1ccccc1C=CC(=O)NCC(=O)NN=Cc1ccccc1[N+](=O)[O-]	0.699
CC(C)NC(=O)N(C)CC1Oc2c(NS(=O)(=O)c3cn(C)cn3)cccc2C(=O)N(C(C)CO)CC1C (stereo unspecified)	0.653
CC1CN(C(C)CO)C(=O)c2cc(NC(=O)C3CCCCC3)ccc2OC1CN(C)S(C)(=O)=O (stereo unspecified)	0.723
O=C(O)CC1c2cc(F)ccc2S(=O)(=O)N1C1CCN(Cc2ccccc2)CC1 (stereo unspecified)	0.697
C=CCOC(=O)C1=CC(c2ccc3c(c2)OCO3)CC(OCCCCO)O1 (stereo unspecified)	0.674&0.681
O=C1C=C(c2ccc(Cl)c(C(F)(F)F)c2)CC(c2ccc3c(c2)OCO3)C1 (stereo unspecified)	0.716
COC(=O)C1=COC(OC2OC(CO)C(O)C(O)C2O)C2C(C)OC(O)CC12 (stereo unspecified)	0.627
O=S1(=O)CCOCC(Cc2ccccc2)N1Cc1ccc(Cl)cc1 (stereo unspecified)	0.702
NC(=NOC(=O)c1ccccc1Cl)c1cccnc1	0.679
CCN1C(=O)C2C(c3ccc(-c4ccc(OC)cc4)cc3)N[C@@](Cc3ccccc3)(C(=O)OC)C2C1=O (stereo partly specified)	0.735
CC#CCN1c2ccccc2[C@]23CC(C(=O)OC)N(C(=O)NCCBr)C2=NC(C(=O)OC)=C(C(=O)OC)C13 (stereo partly specified)	0.713
COc1ccc(NC(=O)N(C)CC2Oc3ccc(NC(=O)NC(C)C)cc3CC(=O)N(C(C)CO)CC2C)cc1 (stereo unspecified)	0.707
COc1ccc(OC)c(NC(=O)COC(=O)C=Cc2ccc(Cl)cc2)c1	0.677
CCCCN1CC(C)C(CC(=O)NCc2ccccc2)C1=O (stereo unspecified)	0.685
CC(C)(C)OC(=O)NC(C(=O)OC(C)(C)C)c1ccc2c(c1)OCO2 (stereo unspecified)	0.646&0.639
O=C(NC1CC=CCC(CC(=O)N(CCO)Cc2ccccc2)C(=O)NCC(c2ccccc2)OC1=O)OCC1c2ccccc2-c2ccccc21 (stereo unspecified)	0.658&0.675&0.718
CCOC(=O)CC1c2ccc(C(F)(F)F)cc2S(=O)(=O)N1c1ccccc1 (stereo unspecified)	0.641
COC(=O)[C@@]1(Cc2ccc(OC)cc2)C2c3cc(C(=O)N(C)C)n(CCSCCO)c3CC2CN1C(=O)c1ccccc1 (stereo partly specified)	0.706
COc1ccc(NC(=O)Nc2cccc3c2OC(CN(C)S(=O)(=O)c2ccccc2)C(C)CN(C(C)CO)C3=O)cc1 (stereo unspecified)	0.622
CC(C)CC1CN=C(Nc2ccccc2)N1CC1CCCCC1 (stereo unspecified)	0.669
O=C(C1=CC(c2ccc(Br)cc2)CC(OCc2ccc(CO)cc2)O1)N1CCN(Cc2ccc3c(c2)OCO3)CC1 (stereo unspecified)	0.685&0.711
Cc1cc(C=C2NC(=S)NC2=O)c(C)n1-c1cccnc1	0.695
CS(=O)(=O)Nc1ccc(-c2ccc(C=C3SC(N)=NC3=O)o2)cc1	0.729
CCOC(=O)C=C1CN(Cc2ccc(OC)cc2)S(=O)(=O)c2ccccc21	0.64

Bioassay records deposited in PubChem BioAssay by ICCB-Longwood Screening Facility, Harvard Medical School.
